Screening results deposited in PubChem by Sanford-Burnham Center for Chemical Genomics.
MT1-MMP promoter: inhibitors of MT1-MMP promoter transcription, cell-based, luciferase reporter, luminescence (AID 618). MT1-MMP promoter luciferase reporter cells, luminescence. calls from a first round at 10 µM; hits with a dose series show EC50 in µM. 87,000 tested, 0.62% active;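 active = over half of the reporter light lost at 10 µM or EC50 under 50 µM; inactive = the rest and hits that failed the dose series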;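 note: actives suppress MT1-MMP promoter-driven transcription so potencies describe inhibitors; HT1080 fibrosarcoma cells; overnight exposure; toxic or luciferase-blocking compounds were not removed from the actives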
Calls only; i = inactive. Some of the compounds tested. The share of hits here may be higher or lower than overall.

SMILES	MT1-MMP promoter
CCc1cc2c(=O)c(-c3cnn(-c4ccccc4)c3)c(C)oc2c(CN2CCCCC2)c1O	i
Cc1cc(Cl)ccc1NC(=S)Nc1cccnc1	i
O=C1c2ccccc2NC(c2c(Cl)cccc2Cl)N1Cc1ccccc1 (configuration not stated)	i
CCN(CC)c1ccc(NC(=O)c2cc(Cl)ccc2OC)cc1	i
CCC(Cc1ccccc1)NC(=O)CSc1ccsc1[N+](=O)[O-] (configuration not stated)	i
CCC1=C(OC(=O)N(CC)CC)N2C(=O)OC(=NCCOC)[C@]2(C)[C@H]2C1=CC[C@H]1C(=O)N(CC)C(=O)[C@H]12	i
COc1ccccc1C(=O)O/N=C1/CCCc2c1ccc(OC)c2[N+](=O)[O-]	i
COc1ccc(S(=O)(=O)Nc2ccc(F)cc2)c(C)c1C	i
Cc1ccc(N2C(=O)C(Cl)=C(NCc3ccccc3)C2=O)c(C)c1	i
Cc1ccc(N2CCN(C(=O)N3CCCC3)CC2)cc1C	i

Part of the list above, as labelled records.
CCc1cc2c(=O)c(-c3cnn(-c4ccccc4)c3)c(C)oc2c(CN2CCCCC2)c1O
  MT1-MMP promoter: i

Cc1cc(Cl)ccc1NC(=S)Nc1cccnc1
  MT1-MMP promoter: i

O=C1c2ccccc2NC(c2c(Cl)cccc2Cl)N1Cc1ccccc1 (configuration not stated)
  MT1-MMP promoter: i

CCN(CC)c1ccc(NC(=O)c2cc(Cl)ccc2OC)cc1
  MT1-MMP promoter: i

Going on with the list.
SMILES	MT1-MMP promoter
CCCn1c(Cc2ccccc2)nnc1SCC(=O)N1CCOCC1	i
O=S(=O)(c1ccc(N2CCC(c3ccc(Cl)cc3)=N2)cc1)N(CCO)CCO	i
O=C(NCc1ccncc1)Nc1ccc(Cl)cc1Cl	i
CCCCn1cnc2sc(-c3ccccc3)cc2c1=O	i
CCCCn1c(N)nc2ccccc21	i
Cc1ccc(-n2c(=O)c(C#N)cc3c(=O)n4cccc(C)c4nc32)cc1	i
CC1(C(=O)NCCN2CCOCC2)C=CC2(CCCCC2)N1C(=O)c1ccccc1 (configuration not stated)	i
COc1cccc(NC(=O)C23CCC(C)(C(=O)O2)C3(C)C)c1 (configuration not stated)	i
CCOC(=O)c1cnc(SC)nc1Sc1ccccc1Cl	i
CC(C)Cc1nnc(NS(C)(=O)=O)s1	i
CN(C)c1c([N+](=O)[O-])ncn1C	i
Cc1ccccc1NC(=O)CC(O)(C(F)(F)F)C(F)(F)F	i
O=C(NCCc1c[nH]c2ccccc12)[C@H]1C[C@@H]1[C@H](NP(=O)(c1ccccc1)c1ccccc1)c1ccccc1	i
C[C@@H](C(=O)NCc1ccccn1)[C@@H]1C[C@@]1(C)[C@@H](NC(=O)OCc1ccccc1)c1ccccc1	i
Cc1ccc2c(C)c(C(=O)N(Cc3cccs3)C3CCS(=O)(=O)C3)oc2c1 (configuration not stated)	i
Cc1ccc2oc(=O)c3c4cc(O)c(O)c(C)c4oc3c2c1	i
Cc1ccc(C(=O)N/N=C\c2cccn2C)cn1	i
CC(=O)C(=Nc1ccc(Cl)cc1Cl)NNc1cccc(Cl)c1	i
COCCNC(=O)C1(CC(C)C)C=CCN1C(C)=O (configuration not stated)	i
COC(=O)CNC(=O)[C@@]1(Cc2ccccc2)C=C[C@@H](C)N1C(=O)c1ccccc1	i
COC(=O)c1ccc(C23CC4(C2)[C@H](CN(C)[C@@H]4c2ccccc2)C3c2ccc(Cl)nc2)cc1 (some centres not stated)	i
CCOC(=O)C1=C(C)N(CCCC(=O)O)C(=O)NC1c1ccc(Cl)cc1Cl (configuration not stated)	i
COc1ccccc1NC(=O)C(CC(C)C)NC(=O)C1CCCCC1 (configuration not stated)	i
O=C(CCc1ccc(S(=O)(=O)NCc2ccccc2)cc1)NCc1ccc2c(c1)OCO2	i
CC1(C)CC(=O)C2=C(C1)N(c1ccc(F)cc1)C(=O)CC2c1ccccc1 (configuration not stated)	i
Cc1ccc(O)c(CNc2nc3ccccc3n2C)c1	i
CCCOC(=O)c1ccc(Nc2nc(C)cc(=O)[nH]2)cc1	i
COc1ccc(NC(=O)NCCCN2CCCC2=O)c(OC)c1	i
NC(=O)c1cc2ccccc2oc1=NCc1ccccc1	i
Cc1cc(N2CCN(C)CC2)nc2ccc(NC(=O)c3cccnc3Cl)cc12	i
COC(=O)c1ccc(C(NC(=O)OCc2ccccc2)/C(=C/[C@@H](C)C(=O)Nc2ccccc2)c2cccnc2)cc1 (some centres not stated)	i
CCCCCCN(C(=O)CCCCCN1C(=O)NC(c2ccc(-c3ccccc3)cc2)C(C(=O)OCc2ccccc2)=C1C)C(C(=O)NCCCC)c1ccc(OCC(=O)OC)c(C(=O)OC)c1 (configuration not stated)	i
CCOC(=O)N/N=C(\C)c1ccc(Br)cc1	i
COc1ccc2nc3c(c([Si](C)(C)C(C)(C)C)c2c1)Cn1c-3cccc1=O	i
CCCC[C@@H]1C[C@H]1C(NC(=O)c1cccs1)c1ccccc1C(F)(F)F (some centres not stated)	i
CCn1c(=O)cc(SCC(=O)NCc2ccc(C)o2)c2ccccc21	i
O=c1c2cc(N3CCOCC3)ccc2[nH]c(=S)n1Cc1ccc(Cl)cc1	i
CC(C)(C)NS(=O)(=O)c1ccc(NS(=O)(=O)Cc2ccccc2)cc1	i
CCCCCc1nnc(NC(=O)C(=O)OCC)s1	i
CC(=O)Nc1ccc(NC(=O)CN(c2cccc(C)c2)S(C)(=O)=O)cc1	i

Reformatted: results already given
mol | MT1-MMP promoter
CCC1=C(OC(=O)N(CC)CC)N2C(=O)OC(=NCCOC)[C@]2(C)[C@H]2C1=CC[C@H]1C(=O)N(CC)C(=O)[C@H]12 | i
COc1ccccc1C(=O)O/N=C1/CCCc2c1ccc(OC)c2[N+](=O)[O-] | i
COc1ccc(S(=O)(=O)Nc2ccc(F)cc2)c(C)c1C | i
Cc1ccc(N2C(=O)C(Cl)=C(NCc3ccccc3)C2=O)c(C)c1 | i

Carrying on.
SMILES	MT1-MMP promoter
COC(=O)[C@@H]1C[C@@]2(O)[C@@H](O)[C@@H](O)[C@@H](O)C[C@H]2N1CC1CC1	i
C[C@@H](C(=O)Nc1ccc2ccccc2c1)[C@@H]1C[C@@]1(C)[C@@H](NC(=O)c1ccncc1Cl)c1ccccc1	i
CCC1=C(OC(=O)N(CC)CC)N2C(=O)OC(=NCC(=O)OC)[C@]2(C)[C@H]2C1=CC[C@H]1C(=O)N(C)C(=O)[C@H]12	i
CCOc1ccc(-c2nc(CSCC(=O)NC3CCCc4ccccc43)c(C)o2)cc1 (configuration not stated)	i
O=C(Nc1ccccc1)c1cccnc1N1CCCC1	i
Cc1ccc(C)c(N2CCN(C(=O)CCn3c(=S)[nH]c4cc5c(cc4c3=O)OCO5)CC2)c1	i
CCCC[C@@H]1C[C@H]1C(NC(=O)c1ccccc1)c1ccc(Cl)cc1 (some centres not stated)	i
COC(=O)c1cc(-c2ccccc2)n(CCN)c1C	i
O=C(N/N=C/C=C/c1ccccc1)C1CC1(c1ccccc1)c1ccccc1 (configuration not stated)	i
CCn1c(=O)cc(OCC(=O)Nc2cccc(C)n2)c2ccccc21	i
CCOC(=O)C1=C(C)N(CCCC(=O)NCc2ccc3c(c2)OCO3)C(=O)NC1c1ccc(Br)cc1 (configuration not stated)	i
COC(=O)c1ccc(C23CC4(C2)[C@H](CN(Cc2ccc(-c5ccccc5)cc2)[C@@H]4c2ccccc2)C3c2ccccc2)cc1 (some centres not stated)	i
CCC1=C(OC(=O)N(CC)CC)N2C(=O)OC(=NCCOC)[C@]2(Cc2ccccc2)[C@H]2C1=CC[C@H]1C(=O)N(CC)C(=O)[C@H]12	i
COCCCNC(=O)c1cn(CC(C)C)c(=O)c2c1c1ccccc1n2C	i
Cc1ccc(SCCC(=O)Nc2cccc(N(C)S(C)(=O)=O)c2)cc1	i
COC(=O)c1ccc(C(NC(=O)OCc2ccccc2)/C(I)=C/[C@@H](C)C(=O)Nc2ccccc2)cc1 (some centres not stated)	i
CN(C)S(=O)(=O)c1cccc(-c2cn3cc(Cl)ccc3n2)c1	i
Cc1cccc(-c2noc(CSc3ccccc3)n2)c1	i
CC12CC(c3ccccc3O1)N(C(=O)c1ccco1)C(=S)N2c1ccccc1 (configuration not stated)	i
CCc1ccc(OCC(=O)NCCOc2ccccc2)cc1	i
COC(=O)c1cccnc1NC(=S)NNC(=O)c1ccccc1	i
CCOC(=O)C1CCCN(C(=O)c2cc(Nc3ccc(OC)cc3OC)nc3ccccc23)C1 (configuration not stated)	i
CCn1c(=O)cc(SCC(=O)N2CCN(c3ccccc3F)CC2)c2ccccc21	i
CC(C)CNC(=O)CSc1ccc(Cl)cc1	i
CCOC(=O)C(C(=O)Nc1ccc(C)cc1)C1CCCCC1 (configuration not stated)	i
COc1ccc(N/C(=C(/C(Cl)=C(Cl)Cl)[N+](=O)[O-])n2nnc3ccccc32)cc1OC	i
C=CCn1c(CNC(=O)c2cccs2)nnc1SCC(=O)c1ccc(Br)cc1	i
Cc1ccc(C)c(N(C)C(=O)c2coc(=O)c3ccccc23)c1	i
CC(=O)C1=C(c2ccccc2)NC(=O)NC1c1ccccc1OCC(=O)NCc1ccccc1 (configuration not stated)	i
CCOc1ccc(NC(=O)CC2C(=O)N(c3ccccc3)C(=S)N2Cc2ccccn2)cc1 (configuration not stated)	i
Clc1ccc(CNc2nc(N3CCOCC3)nc(N3CCOCC3)n2)cc1	i
Cc1ccc(CNC(=O)[C@H](C)[C@H]2C[C@]2(C)[C@H](NC(=O)OCc2ccccc2)c2ccccc2)o1	i
COC(=O)Cn1c(C(=O)N(C)C)cc2c1C[C@H]1CN(C(=O)c3ccccc3)[C@@](Cc3ccc(OC)cc3)(C(=O)OC)[C@@H]21	i
COC(=O)[C@@H]1C[C@H]2CC[C@H](O)C[C@H]2N1Cc1ccc(Cl)cc1	i
CC(Cc1ccccc1)C(=O)NCCO (configuration not stated)	i
CCCCNC(=O)C(c1ccc(OCC(=O)OC)c(C(=O)OC)c1)N(CCc1c[nH]c2ccccc12)C(=O)CCCCCN1C(=O)NC(c2ccc(-c3ccccc3)cc2)C(C(=O)OCc2ccccc2)=C1C (configuration not stated)	i
COC(=O)[C@H]1C[C@@H]1[C@H](NC(=O)OCc1ccccc1)c1ccccc1	i
O=C1N(Nc2ccccc2)C(c2ccc(Br)cc2)C12CCCCC2 (configuration not stated)	i
O=C1Nc2cc(Cl)c(Cl)cc2N(O)N1c1ccc(Cl)cc1	i
COC(=O)CNC(=O)C(C)NC(=O)CNC(=O)OCc1ccccc1 (configuration not stated)	i
Cc1cc(NC(=O)CSc2nc3c(sc4ccccc43)c(=O)n2CCCN2CCOCC2)n[nH]1	i
COC(=O)[C@@H]1CCCN1C(=O)[C@H]1C[C@@H]1[C@H](NC(=O)OCc1ccccc1)c1ccccc1	i
Cn1c(=O)c(C(=O)COC(=O)c2cc(-c3ccccc3)nc3ccccc23)c(N)n(Cc2ccccc2)c1=O	i
COc1cccc2c1OCC1COc3c(c(=O)n(C)c(=O)n3C)C21 (configuration not stated)	i
COC(=O)c1cccc(NC(=O)Cc2ccc(OC)cc2)c1C	i
CCOc1ccc(-n2c(N)c(C(=O)NCc3ccco3)sc2=S)cc1	i
CCOC(=O)C1=C(C)N(CCCC(=O)O)C(=O)NC1c1ccccc1OS(=O)(=O)c1ccc2ccccc2c1 (configuration not stated)	i
COCCNC(=O)[C@H](C)/C=C(\I)C(NC(=O)OCc1ccccc1)c1ccc(C(=O)OC)cc1 (some centres not stated)	i
CCOC(=O)C1(C(F)(F)F)N=C(C(F)(F)F)Nc2ccccc21 (configuration not stated)	i
Cc1ccc(F)c(NC(=O)CCc2ccccc2)c1	i

Other records:
SMILES	MT1-MMP promoter
CCN(CC)C(=O)C1=C(C)Nc2nc3ccccc3n2C1c1cccc(OC)c1 (configuration not stated)	i
O=C(OCc1ccccc1)c1cn(-c2ccccc2)nc1-c1ccncc1	i
Cc1ccc(SCc2c(-c3ccccc3)nn(C)c2Cl)cc1	i
COc1ccc(C2N=C(c3ccccc3)C(C)(C)N2O)cc1 (configuration not stated)	i
CNC(=O)[C@]1(C)C[C@H]1[C@H](NC(=O)[C@]1(C)C[C@H]1[C@H](NC(=O)[C@]1(C)C[C@H]1[C@H](NC(=O)[C@]1(C)C[C@H]1[C@H](NC(=O)OCc1ccccc1)c1ccccc1)c1ccccc1)c1ccccc1)c1ccccc1	i
O=C(CCSCc1ccccc1Cl)N1CCN(c2cccc(Cl)c2)CC1	i
COc1ccc(NC(=S)Nc2cccc([N+](=O)[O-])c2)cc1	i
CC(C)Cn1c(-c2ccccc2)nc2ccccc2c1=O	i
CCOC(=O)c1cnc(-c2ccccc2)nc1N(C)C	i
COC(=O)C1CC1C(NC(=O)[C@@H]1CCCN1)c1ccccc1 (some centres not stated)	i

A second format for 2 compounds above:
CCOC(=O)C1=C(C)N(CCCC(=O)O)C(=O)NC1c1ccc(Cl)cc1Cl (configuration not stated)
- MT1-MMP promoter: i
COc1ccccc1NC(=O)C(CC(C)C)NC(=O)C1CCCCC1 (configuration not stated)
- MT1-MMP promoter: i
